# PINK1 expr mod = A Quantitative High throughput Screen to Identify Chemical Modulators of PINK1 Expression; Potency, µM (series often up to 76.6 µM), for inactives: top-dose activation (PINK1 increase), actives largely listed as activators; PINK1 immunofluorescence, high-content cytometry, 24 h; 410,000 tested, 0.2% active; AID 624263, 2012; active = well fitted activation curve with a large enough effect; inconclusive = small, poorly fitted or top-dose-only effect; inactive = flat fitted curve, though single readings scatter; cell line not stated here;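 also: potency is read from the fitted curve at half-maximal effect; % of control where 0% means no effect; nearly all actives have a fitted effect of over 65% in size; a mitochondrial uncoupler was the plate control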
#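 Stable cell line treated 24 h with compounds at 5 concentrations (CCCP controls), then fixed and immunostained for PINK1 plus nuclear and cell stains; PINK1 immunofluorescence quantified by laser-scanning microplate cytometry.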
# Six1-Eya2 blk = qHTS Assay for Inhibitors of the Six1/Eya2 Interaction | 360,000 tested, 0.56% active | AlphaScreen GST-Six1/His-Eya2 binding, biochemical; hits give low values; control for the full effect not named in the record | AID 651725, 2012 | activity change, % (no concentration beside the values); in the data active = activity change below about -65%; inconclusive = about -30% to -65%; inactive = above about -30%; also: % is scaled to controls: 0 for no effect and ±100 for the full control effect; compound concentration not given in the record
# Target sequence (O00167 whole entry, looked up): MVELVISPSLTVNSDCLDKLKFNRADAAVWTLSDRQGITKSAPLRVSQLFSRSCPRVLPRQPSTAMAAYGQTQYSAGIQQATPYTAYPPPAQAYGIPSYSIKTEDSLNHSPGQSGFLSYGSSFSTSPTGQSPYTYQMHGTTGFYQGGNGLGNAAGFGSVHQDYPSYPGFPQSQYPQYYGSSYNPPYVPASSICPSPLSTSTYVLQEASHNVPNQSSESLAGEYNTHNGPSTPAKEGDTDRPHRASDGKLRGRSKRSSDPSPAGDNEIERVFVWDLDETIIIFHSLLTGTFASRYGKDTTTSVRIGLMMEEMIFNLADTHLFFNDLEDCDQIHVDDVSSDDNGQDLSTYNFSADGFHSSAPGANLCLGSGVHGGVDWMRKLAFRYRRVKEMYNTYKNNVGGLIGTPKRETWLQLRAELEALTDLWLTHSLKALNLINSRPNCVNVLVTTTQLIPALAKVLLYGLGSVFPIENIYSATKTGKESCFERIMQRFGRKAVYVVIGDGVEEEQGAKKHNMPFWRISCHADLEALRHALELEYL
# Target sequence (Q15475 whole entry, looked up): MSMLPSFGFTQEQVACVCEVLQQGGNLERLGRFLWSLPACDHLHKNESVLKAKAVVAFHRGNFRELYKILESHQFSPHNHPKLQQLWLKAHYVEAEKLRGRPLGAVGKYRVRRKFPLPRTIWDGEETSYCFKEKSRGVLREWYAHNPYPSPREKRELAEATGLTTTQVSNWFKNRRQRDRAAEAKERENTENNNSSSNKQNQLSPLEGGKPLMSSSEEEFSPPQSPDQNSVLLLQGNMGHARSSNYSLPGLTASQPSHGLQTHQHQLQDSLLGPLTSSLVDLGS
#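 Homogeneous AlphaScreen proximity assay pairing GST-Six1 with His-tagged Eya2 (added as 5X mix: 250 nM and 500 nM) in 50 mM Tris pH 8.0, 300 mM NaCl, 1 mM TCEP. Glutathione donor and nickel acceptor beads; 1 h, 37 °C, dark.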
# TRPV1 PAM = HTS Assay for Compounds that Act as Potentiators of the Vanilloid Receptor 1. Transient receptor potential cation channel subfamily V member 1 (Homo sapiens), Q8NER1. potentiation, % at 8.33 µM. TRPV1-expressing cells, Fluo-8 calcium influx, capsaicin EC20 potentiation; host cell line not named in the record; control for the full effect not named in the record. 320,000 tested, 0.02% active; active means potentiation above 80%; inconclusive means 30% to 80%; inactive means below 30%; also: 0% is about no effect
#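 Fluo-8 calcium influx in TRPV1-expressing cells, kinetic read (ex 480/em 520 nm). Compound added and read 3 min for agonist activity, followed by capsaicin at EC20 final and 2 min further read for enhancement.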
# D2 PAM = Beta-Arrestin HTS for Positive Allosteric Modulators of the Human D2 Dopamine Receptor: Potentiators | DiscoveRx D2 beta-arrestin cells, luminescence, 90 min; 100% = 57 uM dopamine signal | 360,000 tested, 0.23% active | potentiation, % (no concentration beside the values) | D(2) dopamine receptor (Homo sapiens), P14416; active = potentiation of 50% or more; inconclusive = 30% to 50%; inactive = 30% or less;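 also: compound concentration not given in the record; tested on top of an EC20 dose of dopamine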
#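 PathHunter beta-arrestin assay in DiscoveRx D2 cells. Compounds were added with an EC20 of dopamine (50 nM final) for 90 min at 37 deg C. Luminescence was read 1 h after detection reagent, with 57 uM dopamine as the EC100 control.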
# CtBP-E1A inh = qHTS Assay for Inhibitors of the CtBP/E1A Interaction; AlphaScreen GST-E1A/His-CtBP binding, 1536-well; hits give low values; control for the full effect not named in the record; activity change, % (no concentration beside the values); 340,000 tested, 0.49% active; in the data active means activity change below about -65%; inconclusive means about -30% to -65%; inactive means above about -30%; also: % is scaled to controls: 0 for no effect and ±100 for the full control effect; compound concentration not given in the record
#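 Homogeneous bead-based format: GST-tagged E1A captured on glutathione donor beads, His-tagged CtBP on nickel acceptor beads; compounds precede bead addition by 2 h at 37 °C.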
# D2 ag = Beta-Arrestin HTS for Positive Allosteric Modulators of the Human D2 Dopamine Receptor: Agonists | D(2) dopamine receptor (Homo sapiens), P14416 | DiscoveRx PathHunter D2 beta-arrestin, luminescence, 90 min; 100% = 57 uM dopamine signal | activation, % (concentration not given with the values) | 360,000 tested, 0.084% active; in the data active = activation above about 40%; inconclusive = about 15% to 40%; inactive = below about 15%; also: compound concentration not given in the record; the text of the record calls up to 30% inactive
#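 Agonist mode: compounds alone added to overnight-plated D2 PathHunter cells for 90 min at 37 C, with 57 uM final dopamine (EC100) defining full response. Beta-arrestin recruitment detected by chemiluminescent reagent, read after 1 h at ambient temperature.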
# Sfp inh = qHTS Assay for Inhibitors of Bacillus subtilis Sfp phosphopantetheinyl transferase (PPTase); 4'-phosphopantetheinyl transferase ffp (Bacillus subtilis), Q9F4F7; 310,000 tested, 3.5% active; Biochemical Sfp PPTase activity, qHTS; Potency, µM, for the others: max response, negative = inhibition, usual class: inhibitors; active = well fitted inhibition curve with a large enough effect; inconclusive = small, poorly fitted or top-dose-only effect, or another doubt; inactive = no such curve, though single readings can be large or run the other way;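 also: the enzyme is Sfp with the accession as filed and its product quenches rhodamine fluorescence; potency is read from the fitted curve at half-maximal effect; 0% = enzyme reaction without inhibitor and -100% = no enzyme wells; top concentration of the series not given in the record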
#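 Step 1, compound plus 15 nM Sfp-PPTase, 15 min, room temperature. Step 2, add rhodamine-CoA (5 uM) and BHQ-2-YbbR (12.5 uM). Step 3, read 525/598 nm fluorescence at 0 and 30 min.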
# Numbers without * were called inactive; ? = inconclusive; · = no result given; [ ] = dose if it differs, or a comment.
SMILES,PINK1 expr mod,Six1-Eya2 blk,TRPV1 PAM,D2 PAM,CtBP-E1A inh,D2 ag,Sfp inh
O=C(C1CCN(C2CC(=O)N(c3ccc(Cl)cc3)C2=O)CC1)N1CCOCC1 (stereo not drawn),-0.4%,5.7,16.1,-6.6,11.7,-0.5,-1.5%
CCOc1ccc(N=C2NC(=O)C(CC(=O)O)S2)cc1 (stereo not drawn),1.1%,0.1,4.0,-8.3,5.4,-1.1,3.8%
CCn1c(C(C)NC(=O)c2cccc(C)c2)nc2ccccc21 (stereo not drawn),1.4%,8.1,-8.3,-16.4,-1.2,-8.2,-2.1%
COC(=O)CCCC(=O)N1CCC(CCC(=O)NCc2ccc(F)cc2)CC1,0.1%,7.0,7.3,-5.2,26.1,-1.2,11.4%
CNc1nc(=O)n(C2CCCO2)cc1C (stereo not drawn),2.1%,1.2,·,-10.3,13.4,-3.5,·
O=C(CSc1c(F)c(F)cc(F)c1F)Nc1ccc(C2SCCS2)cc1,8.1%,-0.5,-12.1,-17.0,·,-4.6,-1.6%
CC(C)OCCCNC(=O)c1ccc2c(=O)n(Cc3ccc4c(c3)OCO4)c(=S)[nH]c2c1,5.0%,-2.6,-4.0,-5.8,8.3,-2.6,11.1%
CNC(=O)CCC(=O)Nc1ccc(C)cc1,-1.3%,5.0,15.0,-1.8,2.1,-5.0,4.7%
CCOC(=O)c1c(-c2ccccc2)oc2ccc(OCC(=O)NN)cc12,2.0%,-12.3,-12.2,-0.2,-22.4,-0.1,-6.9%
COc1cc(C=Nc2cccc(C)c2)c(O)c([N+](=O)[O-])c1,2.2%,0.0,-1.9,-22.1,-21.8,-5.8,12.4%
CC1(C(=O)NS(=O)(=O)C2CC2)CCCN(C(=O)/C=C/c2ccccc2)C1 (stereo not drawn),0.5%,-0.3,·,-7.0,4.8,1.1,·
CC[C@H](C)/C=C(C)/C=C/C1=CC2=CC(=O)[C@]3(C)OC(=O)[C@@H](C(C)=O)[C@@H]3C2=CO1,4.2%,2.7,-5.3,-31.8,-12.4,-1.9,?
CCOc1ccccc1NC(=S)NC(=O)C1CC1,2.6%,-1.3,2.0,-9.4,4.8,-6.7,8.3%
COCc1cc(C)nc(SCC(=O)Nc2ccc(C)c(C)c2)c1C#N,2.8%,2.0,-1.7,-5.3,9.1,-3.2,11.6%
CCCSC1=C(C#N)C(c2cc(OC)ccc2OC)CC(=O)N1 (stereo not drawn),2.0%,24.9,-7.0,-5.1,0.0,-3.7,-6.5%
Cc1ccc(NC(=O)c2cc(N3C(=O)C=CC3=O)ccc2N2CCOCC2)cc1,11.3%,-15.7,-6.7,-23.0,4.7,-3.2,4.47µM*
Cc1ccc(O)c(NC(=O)c2noc3c2CCc2ccccc2-3)c1,0.8%,0.4,-1.3,1.6,0.0,-2.5,19.0%
O=C1CCCC(O)=C1N=Nc1c(Cl)cc(C(F)(F)F)cc1Cl,1.3%,-3.3,1.1,-8.4,2.6,-4.3,?
CC(OC(=O)CCCN=C1NS(=O)(=O)c2ccccc21)C(=O)Nc1ccccc1F (stereo not drawn),-0.1%,-0.1,-6.4,-18.5,1.0,-2.9,·
COc1ccc(C2CC(=O)N(CC(=O)NCC3CCCO3)c3ccccc3S2)cc1OC (stereo not drawn),0.3%,3.6,-36.1,0.4,1.0,-2.3,13.5%
O=C1NC2c3ccccc3C(=O)N2c2c1cnn2-c1ccccc1 (stereo not drawn),1.3%,6.8,3.0,11.2,-6.2,-1.8,11.9%
Cc1ccc(O)c(C(=O)c2cc(C#N)c(=O)n(Cc3ccccc3)c2)c1,-1.7%,31.2,5.0,5.0,-5.4,7.0,6.3%
CC(C)Oc1ccc(S(=O)(=O)N2CCOCC2)cc1NC(=O)Cc1c(F)cccc1Cl,4.7%,-1.2,-10.5,15.9,17.2,-1.8,·
N#CC1=C(SCC(=O)NC23CC4CC(CC(C4)C2)C3)NC(=O)C(C#N)C12CCCCC2 (stereo not drawn),?,1.4,3.3,8.0,-9.8,2.2,-3.7%
CC(C)C[C@@]12C(=O)N(c3cccc(Cl)c3)C(=O)N1[C@H](c1ccc(F)cc1)[C@@H]1C(=O)N(C3CCCCC3)C(=O)[C@@H]12,-0.7%,0.5,?,-9.4,0.2,-1.6,·
CCOc1ccc(OCc2ccc(C(=O)N(CC)CC)cc2)cc1,1.3%,5.2,-7.1,-6.1,·,-1.0,-9.6%
CN1CCCC(C)(C(=O)Nc2cccc(Oc3ccccc3)c2)C1 (stereo not drawn),1.0%,8.8,·,-15.3,-11.6,-3.1,·
O=C(Nc1ccccc1)C1Cc2ccccc2CN1C(=O)c1ccco1 (stereo not drawn),-1.4%,-5.0,3.6,-2.9,-2.1,-3.8,?
Cc1cc(C(=O)N2CCN(S(=O)(=O)c3ccc(C)c(C)c3)CC2)no1,4.5%,0.7,23.8,-21.0,0.2,-4.0,·
Cc1cc(Cl)ccc1OCC(=O)N1C(C)CCCC1C (stereo not drawn),5.2%[38.3 µM],2.3,-15.0,-8.6,3.9,-1.2,?
COc1ccc(CCC(=O)Nc2ccc(C(=O)c3ccncc3)cc2)cc1,4.5%,-1.0,-6.5,-1.6,-0.2,9.9,2.2%
C=CCn1c(SCC(=O)NCC2CCCO2)nc2scc(-c3ccccc3)c2c1=O (stereo not drawn),0.3%,2.1,-14.5,-6.5,4.7,2.1,11.4%
NC(N)=NS(=O)(=O)c1ccc(NC(=S)NC(=O)c2ccncc2)cc1,-1.4%,1.8,0.5,-9.2,1.2,-7.7,50.1µM*
CCCC(=O)NC(c1ccc(C(C)C)cc1)c1ccc2cccnc2c1O (stereo not drawn),14.6%,?,-2.4,-1.9,-65.1*,-2.3,8.4%
CC(=O)C1=C(O)C(=O)N(c2ccccn2)C1c1ccc(Cl)cc1 (stereo not drawn),3.0%,-14.3,-0.7,-7.6,-3.5,-2.6,13.1%
CC(OC(=O)CNC(=O)c1ccco1)C(=O)Nc1ccc(Cl)cn1 (stereo not drawn),-0.9%,-1.3,-7.8,11.2,2.0,-1.0,·
Cc1cc(C)n2nc(C(=O)N/N=C/c3ccccc3C)nc2n1,1.7%,-1.2,-0.7,3.6,·,5.1,7.0%
Cn1c(C(=O)N2CCOCC2)cc2c(=O)n3ccccc3nc21,0.2%,-0.8,3.7,-4.1,-0.6,-2.6,9.7%
O=C(Cc1cccc2ccccc12)Nc1ccc2oc(-c3ccccc3)nc2c1,6.6%,-0.8,19.7,?,5.7,7.3,?
CNc1cccc2c1C(=O)c1ccccc1C2=O,-1.8%,-87.5*,2.1,-30.0,-2.6,-3.5,10.9%

# Retrieved by structure from above, 3 records:
SMILES,PINK1 expr mod,Six1-Eya2 blk,TRPV1 PAM,D2 PAM,CtBP-E1A inh,D2 ag,Sfp inh
C=CCn1c(SCC(=O)NCC2CCCO2)nc2scc(-c3ccccc3)c2c1=O (stereo not drawn),0.3%,2.1,-14.5,-6.5,4.7,2.1,11.4%
NC(N)=NS(=O)(=O)c1ccc(NC(=S)NC(=O)c2ccncc2)cc1,-1.4%,1.8,0.5,-9.2,1.2,-7.7,50.1µM*
Cc1cc(C(=O)N2CCN(S(=O)(=O)c3ccc(C)c(C)c3)CC2)no1,4.5%,0.7,23.8,-21.0,0.2,-4.0,·

# Carrying on:
SMILES,PINK1 expr mod,Six1-Eya2 blk,TRPV1 PAM,D2 PAM,CtBP-E1A inh,D2 ag,Sfp inh
CC1(C)Cc2c(sc(NC(=O)C3CC(Cl)=CCC3C(=O)O)c2C#N)CO1 (stereo not drawn),-0.8%,1.5,4.6,-1.9,4.2,-0.3,11.5%
C[C@@]12CCC=C[C@H]1[C@H](c1ccc3ccccc3c1)N(Cc1ccccc1)C2=O,2.5%,-7.7,12.2,-5.6,-10.3,-1.7,-14.7%
O=C(COC(=O)c1cc(Cl)ccc1O)NCCC1=CCCCC1,3.2%,-1.0,-13.3,-0.1,8.0,1.8,·
CC(C)(C)NC(=O)Cn1ccc(=N)c2ccccc21,1.9%,3.3,2.2,1.8,10.1,-2.6,-6.0%
COc1ccc(CN2CCN(C(=O)c3cccs3)CC2)c(OC)c1OC,-2.6%,4.8,-4.2,-11.2,-4.0,?,?
CC(C)C(=O)c1ccc(O)c(O)c1,2.8%,3.3,-2.4,4.5,·,3.7,?
COC(=O)c1cc(NC(=O)c2c(-c3ccccc3)noc2C)ccc1N1CCOCC1,-2.3%,0.4,8.9,-2.1,0.7,-3.1,12.0%
O=C(N/N=C/C=C/c1ccco1)c1ccccc1Cl,0.3%,-23.6,-0.3,-8.2,-1.3,-1.4,39.8µM*
CCN1C(=O)[C@H]2[C@@H](c3ccc(C)cc3)N3C(=O)N(c4ccc(C)cc4)C(=O)[C@@]3(C)[C@H]2C1=O,-0.8%,5.1,-8.5,-5.3,2.1,-4.4,17.9%
CCn1c(SCC(=O)N/N=C/c2c[nH]c3ccccc23)nnc1-c1ccc(C(C)(C)C)cc1,17.8%,-25.8,-11.2,-26.4,-12.1,2.5,-1.1%
CCOC(=O)C1(C)CCCN1C(=O)c1ccc(C(F)(F)F)nc1C (stereo not drawn),1.6%,4.0,·,0.0,9.4,-3.5,·
CC(=O)N1c2ccc(S(=O)(=O)N3CCC(C(=O)Nc4cc(C)ccn4)CC3)cc2CC1C (stereo not drawn),-0.2%,-6.0,1.2,-1.9,-4.2,-0.1,14.9%
Cc1ccc(SCC(=O)NCC2COc3ccccc3O2)cc1 (stereo not drawn),-0.6%,0.3,-20.8,-8.8,21.0,-0.6,·
CCS(=O)(=O)N1CCC(C(=O)NCc2ccc(F)cc2)CC1,-1.9%[38.3 µM],7.2,15.2,-13.3,12.7,-1.0,17.8%

# Profiles from above:
# Profile of COC(=O)c1cc(NC(=O)c2c(-c3ccccc3)noc2C)ccc1N1CCOCC1 : PINK1 expr mod = -2.3%; Six1-Eya2 blk = 0.4; TRPV1 PAM = 8.9; D2 PAM = -2.1; CtBP-E1A inh = 0.7; D2 ag = -3.1; Sfp inh = 12.0%
# Profile of CC(C)(C)NC(=O)Cn1ccc(=N)c2ccccc21 : PINK1 expr mod = 1.9%; Six1-Eya2 blk = 3.3; TRPV1 PAM = 2.2; D2 PAM = 1.8; CtBP-E1A inh = 10.1; D2 ag = -2.6; Sfp inh = -6.0%
